# Screening data deposited in PubChem by National Center for Advancing Translational Sciences (NCATS).
# D2 PAM = potentiates the human D2 dopamine receptor allosterically | potentiation, % (test concentration not listed) | 360,000 tested, 0.23% active | DiscoveRx D2 beta-arrestin cells, luminescence, 90 min; 100% = 57 uM dopamine signal; active = potentiation of 50% or more; inconclusive = 30% to 50%; inactive = 30% or less;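 note: compound concentration not given in the record; tested on top of an EC20 dose of dopamine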
# Target sequence (P14416 whole entry, looked up): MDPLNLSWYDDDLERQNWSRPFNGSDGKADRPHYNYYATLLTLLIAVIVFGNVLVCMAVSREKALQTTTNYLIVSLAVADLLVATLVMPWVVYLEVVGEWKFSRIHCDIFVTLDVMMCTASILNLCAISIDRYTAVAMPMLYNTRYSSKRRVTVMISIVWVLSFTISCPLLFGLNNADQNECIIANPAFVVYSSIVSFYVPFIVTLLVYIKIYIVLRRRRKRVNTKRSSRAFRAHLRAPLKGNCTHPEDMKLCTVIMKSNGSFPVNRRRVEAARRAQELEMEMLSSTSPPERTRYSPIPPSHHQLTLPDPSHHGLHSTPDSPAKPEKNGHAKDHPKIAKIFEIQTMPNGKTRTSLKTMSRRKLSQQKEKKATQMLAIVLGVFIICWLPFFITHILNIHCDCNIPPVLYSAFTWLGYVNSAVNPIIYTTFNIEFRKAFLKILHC
#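 PathHunter D2 cells, attached overnight at 37 deg C, received compound in DMSO plus dopamine at EC20 (50 nM final) for 90 min at 37 deg C. Beta-arrestin recruitment was read as luminescence after 1 h with detection reagent at ambient temperature.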
# CtBP-E1A inh = inhibitors of CtBP/E1A interaction; AlphaScreen GST-E1A/His-CtBP binding, 1536-well; active compounds read low; control for the full effect not named in the record; AID 651724; activity change, % (no concentration beside the values); 340,000 tested, 0.49% active; in the data active means activity change below about -65%; inconclusive means about -30% to -65%; inactive means above about -30%; note: % is set by controls: 0 for no effect and ±100 for the full control effect
#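 GST-E1A and His-tagged CtBP (125 nM each as 5X stock) were preincubated with pin-transferred compound for 2 h at 37 °C in the dark, then glutathione donor and nickel acceptor beads were added for 1 h before AlphaScreen reading.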
# D2 ag = human D2 receptor agonism in beta-arrestin assay. P14416. DiscoveRx PathHunter D2 beta-arrestin, luminescence, 90 min; 100% = 57 uM dopamine signal. activation, % (concentration not given with the values). 360,000 tested, 0.084% active. AID 624465; in the data active = activation above about 40%; inconclusive = about 15% to 40%; inactive = below about 15%; note: compound concentration not given in the record; the text of the record calls up to 30% inactive
#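 Agonist mode: compounds alone added to overnight-plated D2 PathHunter cells for 90 min at 37 C, with 57 uM final dopamine (EC100) defining full response. Beta-arrestin recruitment detected by chemiluminescent reagent, read after 1 h at ambient temperature.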
# gsp antagonist = antagonizes gsp, the McCune-Albright syndrome mutation; AID 624288; gsp-mutant cells, cAMP HTRF, 30 min; control for the full effect not named in the record; Potency, µM (top dose mostly 76.9 µM), for inactives: top-dose activity change, negative = inhibition, hits mostly inhibitors; 340,000 tested, 0.4% active; active = falling curve of any shape with a large fitted effect; inconclusive = falling curve, mostly with a smaller effect; inactive = flat or rising curve; cell line not stated here;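 note: intracellular cAMP measured with PDE inhibitor Ro 20-1724 present during compound exposure; potency is the fitted concentration of half-maximal effect; % is set by controls: 0 for no effect and ±100 for the full control effect; nearly all actives have a fitted effect of over 65% in size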
#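 Cells in G418 medium, seeded 16-24 h, 37C; buffer exchange to DPBS + 1 mM CaCl2, 0.5 mM MgCl2, 0.05% BSA; cpds in DMSO + […] (300 uM stock), 30 min 37C; HTRF cAMP detection.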
# Six1-Eya2 blk = inhibitors of human Six1/Eya2 interaction; AlphaScreen GST-Six1/His-Eya2 binding, biochemical; active compounds read low; control for the full effect not named in the record; activity change, % (no concentration beside the values); 360,000 tested, 0.56% active; Q15475+O00167; in the data active = activity change below about -65%; inconclusive = about -30% to -65%; inactive = above about -30%; note: % is set by controls: 0 for no effect and ±100 for the full control effect
#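 AlphaScreen luminescence read after one hour at 37 °C in darkness. Pin-transferred compounds met GST-Six1 and His-Eya2 protein (5X stock 250 nM/500 nM) plus glutathione donor and Ni-chelate acceptor beads (5X, 50 ug/mL).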
# gsp ag = activates gsp, the McCune-Albright syndrome mutation; gsp mutant cells, cAMP HTRF, 30 min; control for the full effect not named in the record; Potency, µM (highest dose often 76.9 µM), without a hit: top-dose activation (cAMP increase), actives largely listed as activators; 340,000 tested, 0.13% active; AID 624287; active = well fitted activation curve with a large enough effect; inconclusive = small, poorly fitted or top-dose-only effect, or another doubt; inactive = no such curve, though single readings can be large or run the other way; cell line not stated here;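 note: phosphodiesterase inhibitor Ro 20-1724 added with compounds to block cAMP breakdown; potency is the fitted concentration of half-maximal effect; nearly all actives have a fitted effect of over 60% in size; about a fifth of the inactives were tested at one dose only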
#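 Cells in DMEM/10% FBS with G418 were pretreated with compounds in DMSO plus […] (300 uM stock) for 30 min at 37C. cAMP was measured by HTRF (cAMP-d2 plus anti-cAMP antibody-K) after 30 min at room temperature.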
# The depositor's hits bear a star; ? = inconclusive; / = no result given; & = joins results of further samples; [ ] = remark or other dose. Rows are unselected; about 1.4% have a hit in one of these screens.
structure	D2 ag	gsp ag	CtBP-E1A inh	Six1-Eya2 blk	gsp antagonist	D2 PAM
COc1ccc2cc3c(N)nn(C(=O)c4ccccc4[N+](=O)[O-])c3nc2c1	9.6	3%[15.4 µM]	-3	-13	-15%	-3
Cc1c(NC(=O)c2ccc(Br)o2)c(=O)n(-c2ccccc2)n1C	-2.5	12%	16	1	-9%	-2
CCN(CC)S(=O)(=O)c1cccc(NC(=O)CCNC(=O)c2ccccc2Cl)c1	-2.5	6%[15.4 µM]	-11	-11	-1%	-4
O=C1NC(=O)C(c2ccccc2)(c2ccccn2)N1 (stereo not drawn)	1.1	15%	3	2	5%	-1
CC(=O)Nc1ccc(-c2ccnc3c2CC(C)(C(=O)Nc2ccc(Cl)c(C(F)(F)F)c2)O3)cc1 (stereo not drawn)	?	/	-23	-26	/	3
O=C(N[C@@H](Cc1ccc(Br)cc1)C(=O)O)OCC1c2ccccc2-c2ccccc21	8.0	?	5	-1	1%	-5
N/C(=N\OC(=O)COc1ccc(Br)cc1)c1ccncc1	-3.3	-7%[15.4 µM]	17	3	5%	-16
COc1ccc(S(=O)(=O)N2CCN(C(=O)c3cc(C4CC4)nn3-c3ccccc3)CC2)cc1OC	-1.9	-13%	-2	2	-24%	0
CCOC(=O)CCCCCC(=O)Nc1ccc2c(c1)CC(=O)N([C@H](C)CO)C[C@@H](C)[C@H](CN(C)Cc1ccc3c(c1)OCO3)O2	-2.0	/	-6	-8	-8%	/
O=C1CCCN1CCCNc1ccc2nnc(CCC(=O)N3CCN(c4ccc(F)cc4)CC3)n2n1	6.6	70%	-8	-16	17%	-11
S=C(c1ccc(-c2cc(Cl)ccc2Cl)o1)N1CCCCC1	-0.5	7%	-3	-11	-13%	-8
Cc1ccnc(NS(=O)(=O)c2ccc(Cl)nc2)c1	-1.1	2%[15.4 µM]	11	7	6%	0
CCN(CC)S(=O)(=O)c1ccc(N2CCCC2)c(NC(=O)Cc2c(F)cccc2Cl)c1	-0.8	1%	-16	-5	3%	-9
Fc1ccc(-c2cnn3c(-c4cccs4)ccnc23)cc1	-3.7	-3%[15.4 µM]	7	5	-9%	-14
O=C(Nc1ccc(Cl)cc1C(=O)Nc1ccncc1)c1ccco1	1.4	2%	-1	-2	-10%	-10
CCOC(=O)C1=C(CC)OC(N)=C(C#N)C1c1cccs1 (stereo not drawn)	-0.8	15%	-7	-6	?	-4
CCN1CCN(C(=O)c2ccc(-c3nc4ccccc4s3)s2)CC1	0.1	7%	/	-2	7%	-64
CC1(CC(=O)N/N=C/c2ccc(OCc3ccc(Cl)cc3Cl)cc2)OCCCO1	3.0	?	-2	-7	-24%	1
O=C(COc1ccccc1)N/N=C/c1ccc2c(c1)OCO2	-0.5	-1%[15.4 µM]	7	2	/	-28
Cc1ccc(N2CC(C(=O)Nc3ccccc3C(=O)N3CCOCC3)CC2=O)cc1 (stereo not drawn)	0.6	9%	30	11	15%	2
O=C(Nc1ccccc1Cl)N1CCN(c2ccccn2)CC1	5.2	7%	2	1	6%	9
CCC1CCC(C(=O)NC(CCSC)C(=O)NCCc2ccc(S(N)(=O)=O)cc2)CC1 (stereo not drawn)	0.0	10%	/	1	4%	-3
O=C(COc1ccccc1)N=C1SC2CS(=O)(=O)CC2N1CCc1ccccc1 (stereo not drawn)	-2.7	-43%[inhibitor]	3	1	?	-2
C=CCOc1ccccc1CNc1ccccc1C	-4.4	-58%[inhibitor]	-25	-11	-9%	-7
O=C(Nn1cnnc1)c1cc(-c2ccccn2)nc2ccccc12	-0.4	24%	-3	-2	3%	-11
CCCCCn1c(CNC(=O)CC)nc2ccccc21	-8.0	-4%	1	4	7%	-12
O=C(CCN1N=C(c2ccccc2)CCC1=O)NCC1COc2ccccc2O1 (stereo not drawn)	2.5	-16%	4	2	-8%	4
CC(=O)c1cccc(NC(=O)N2CCCC2C(=O)NC2CCCCC2)c1 (stereo not drawn)	-3.7	-33%[inhibitor]	5	3	6%	-11
C1COCCNCCOCCOCCN1	-1.1	-2%	-7	5	11%	7
COc1cc2c(cc1O)C(CSC)Cc1cc3c(cc1N(C)CC2)OCO3 (stereo not drawn)	-5.4	-2%	-20	?	/	-6
C[C@H](CO)N1C[C@H](C)[C@@H](CN(C)C)Oc2c(NC(=O)CCC(F)(F)F)cccc2C1=O	-2.6	/	1	5	-6%	-2
COCCCNC(=O)C1CC(=O)OC1c1ccc(OC)c(OC)c1 (stereo not drawn)	-1.0	22%	7	-1	13%	-6
CC(=O)Nc1ccc(NC(=O)C2CC(=O)N(c3cccc(Cl)c3)C2)cc1 (stereo not drawn)	-0.1	-42%[inhibitor]	/	2	7%	1
S=C(Nc1ccccc1)Nc1ccc2ccccc2c1	-3.3	?	-19	8	2%	-5
COCCOC(=O)C1=C(C)NC2=C(C(=O)CC(C)(C)C2)C1c1ccc2c(c1)OCO2 (stereo not drawn)	-2.1	7%	10	8	0%	8
CCc1ccc(C(=O)N2CCCC2)s1	0.4	32%	9	3	-1%	7
CC(=O)N/C(=C\c1ccc2c(c1)OCO2)C(=O)NC(C(=O)O)c1ccccc1 (stereo not drawn)	-2.5	-1%[15.4 µM]	4	7	5%	3
CC(C)(C)NC(=O)c1ccc2c(c1)CCO2	-4.7	1%	/	3	6%	-13
N#CC1=C(N)OC2=C(C(=O)CCC2)C1c1cccs1 (stereo not drawn)	-3.8	4%[15.4 µM]	-1	5	10%	-16
COc1cccc(CC2(CO)CCN(Cc3cccn3-c3cccnc3)CC2)c1	3.3	-12%[15.4 µM]	0	-2	4%	-7
CCOc1ccccc1NS(=O)(=O)c1c[nH]c(C(=O)OC)c1	-2.6	-26%	-11	5	-9%	-6
COCCNc1ncnc2c1[nH]c1ccccc12	-2.0	-1%[15.4 µM]	0	3	-14%	-5
CN(C(=O)c1ccc(OC2CCN(S(=O)(=O)N(C)C)CC2)cc1)C1CCCCC1	0.8	-80%[inhibitor]	-1	1	-6%	-7
CCc1cc(=O)oc2cc(C)cc(O)c12	-3.3	?	-4	3	-1%	-5
CC1CCCN(S(=O)(=O)c2ccc(Cl)s2)C1 (stereo not drawn)	-2.7	12%	5	13	1%	0
CCOC(=O)Cn1cnc2scc(-c3ccc(C)c(C)c3)c2c1=O	1.0	12%	2	0	-17%	4
N#CC(c1nc2ccccc2nc1N1CCCC1)S(=O)(=O)c1ccccc1 (stereo not drawn)	-0.5	-1%	-2	-10	-21%	19
CCN(Cc1ccccc1)S(=O)(=O)c1ccc(S(=O)(=O)N2CCN(C)CC2)cc1	-2.3	-7%	5	1	8%	-14
O=C(C1=C[C@H](c2ccccc2)C[C@H](OCCCCO)O1)N1CCOCC1	-0.1	/	5	15	10%	-11
O=C(Cc1ccc(Cl)cc1)NCC(=O)N1CCN(Cc2ccccc2)CC1	-2.2	7%[15.4 µM]	1	4	5%	-26

# 3 of the entries above in order of the Six1-Eya2 blk value, falling:
SMILES | D2 ag | gsp ag | CtBP-E1A inh | Six1-Eya2 blk | D2 PAM
O=C(C1=C[C@H](c2ccccc2)C[C@H](OCCCCO)O1)N1CCOCC1 | -0.1 | / | 5 | 15 | -11
CCOc1ccccc1NS(=O)(=O)c1c[nH]c(C(=O)OC)c1 | -2.6 | -26% | -11 | 5 | -6
CCc1cc(=O)oc2cc(C)cc(O)c12 | -3.3 | ? | -4 | 3 | -5

# The listing continues.
structure	D2 ag	gsp ag	CtBP-E1A inh	Six1-Eya2 blk	gsp antagonist	D2 PAM
COc1ccc(NC(=O)C(=O)N/N=C(\C)CC(=O)Nc2ccccn2)c(OC)c1	-3.7	20%[15.4 µM]	4	-1	0%	6
Cc1cc(S(=O)(=O)NCC(C)C)ccc1OCC(=O)NCC1CCCO1 (stereo not drawn)	3.5	7%	5	1	-30%	6
O=[N+]([O-])c1c(NCCCO)cc(N2CCCCCC2)c2nonc12	-4.7	-13%[15.4 µM]	-6	1	-27%	-11
CCCCC(=O)Nc1ccc(C(=O)Nc2ccc(S(=O)(=O)Nc3nccc(C)n3)cc2)cc1	-0.4	-13%	-3	-9	4%	-2
Cc1nn(Cc2noc(C(=O)NCC3CCCO3)n2)c(C)c1Br (stereo not drawn)	-1.6	16%	9	4	19%	-3
CCN(C(=O)CN1C(=O)CN(C)C1=O)c1cccc2ccccc12	-2.7	4%	2	5	-1%	-9
CC1(C)SC2C(NC(=O)COc3ccccc3)C(=O)N2C1C(=O)O (stereo not drawn)	-2.1&-1.2	2%	5	0&-6	-4%&5%	?
Cc1cc(C)c2c(c1)/C(=N/NC(=S)Nc1ccc(F)cc1)CCC2	-1.9	4%	-4	-9	-9%	-24
CCOc1ccc(S(=O)(=O)N2CCC(c3ccccc3)CC2)cc1C(=O)O	-0.2	?	9	0	8%	-2
O=C(N/N=C/c1ccc(C(F)(F)F)cc1)c1ccc(O)cc1	3.5	5%	-4	-1	-12%	-7
COc1ccc(-c2cc(C(F)(F)F)nc(SCCC(=O)NCc3ccccc3)n2)cc1	-1.9	2%	2	-4	7%	-17
CC(=O)c1ccc(S(=O)(=O)N2CCC(c3nnc(SCCN4CCCC4)n3C)CC2)cc1	-2.9	6%[15.4 µM]	0	-1	12%	-12
O=C(O)C1CCCCC1C(=O)Nc1ccccc1F (stereo not drawn)	0.7	-43%[inhibitor]	-11	-1	0%	-10
CCc1cc2c3c(c1)C(C)CC(C)(C)N3C(=O)C2=O (stereo not drawn)	-3.1	-10%	10	0	5%	-4
O=C(Nc1ccccc1C(=O)NCCCN1CCOCC1)c1cccc([N+](=O)[O-])c1	-7.5	-37%[inhibitor]	0	15	-5%	-36
CC(=O)NC1C(c2nc3ccccc3s2)=C(c2ccccc2)C(=O)N1c1ccc(C)cc1 (stereo not drawn)	-2.1	-38%[inhibitor]	-11	-5	-3%	-12
O=S(=O)(c1ccccc1)n1ccc2cccnc21	-5.2	-41%[inhibitor]	0	1	10%	-33
COc1ccc(-c2nc(-c3ccncc3)no2)cc1OC	2.7	-10%	-5	7	-21%	-1
C#Cc1cccc(-n2nnc(C(=O)OC)c2-c2ccccc2)c1	-3.9	2%[15.4 µM]	-8	-17	-2%	-3
Cc1cc(Nc2ccccc2)nc(N2CCOCC2)n1	-1.6	-4%	4	-6	10%	-16
COc1cccc(CN(C)C(=O)c2ccc(NC(=O)CC3SC(N4CCCC4)=NC3=O)cc2)c1OC (stereo not drawn)	-4.3	-40%[inhibitor]	5	-5	13%	-16
N=c1c2c(-c3ccccc3)c(-c3ccccc3)n(Cc3ccccc3)c2ncn1CCO	-1.0	-38%	-21	-10	-14%	-5
CCOC(=O)N1CCC(N2Cc3cccc(C(=O)N4CCN(C5CCCCC5)CC4)c3C2=O)CC1	-3.1	40%	1	-1	2%	-7
